# Sa ugtP lethal: compounds lethal to S. aureus RN4220 ugtP deletion mutant | growth inhibition, % (test concentration not listed) | OD600 growth, 16 h; some inactives read as strong as hits | actives 0.54% (n = 330,000);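 active = z-score under -3 and OD600 up to 0.15 on both plates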;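 note: plate controls were untreated wells for no effect and antibiotic for full effect; wells of about 80 µL received 100 nL stock; the first replicate is given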
# Sa RN4220 lethal: kills Staphylococcus aureus RN4220. S. aureus RN4220 growth, OD600, 16 h. inhibition, % (concentration not given with the values). actives 0.33% (n = 330,000). AID 1259311;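 active = z-score of -3 or lower and OD600 up to 0.18 on both plates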;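 note: plate controls were untreated cells for no effect and reference antibiotic for full effect; stock transfer was 100 nL into about 80 µL; one replicate is shown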
# BJeLR lethal: BJeLR cell viability loss. BJeLR (HRASV12) viability, CellTiter-Glo ATP luminescence, 48 h; reference of the scale not given here. inhibition, % (test concentration not listed). actives 0.17% (n = 300,000);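 active = replicate mean above 50%; inconclusive = above 50% but judged a plate artefact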;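 note: 50 nL library stock added to about 25 µL; numbers are from one replicate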
# Mtb hypoxia rep: inhibitors of hypoxia-regulated fluorescent reporter in Mycobacterium tuberculosis. M. tuberculosis hypoxia-regulated fluorescent reporter, fluorescence. fluorescence inhibition, % (no concentration beside the values). actives 0.1% (n = 300,000). AID 1159583;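 active = 35 to 45% if threefold the growth effect, above 45% if 1.5-fold the growth effect; inactive = the rest, general growth blockers included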;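 note: wells of about 50 µL received 100 nL stock; 0% = vehicle wells and 100% = reference inhibitor wells; whole bacteria with a GFP reporter of the hypoxia response; strong numbers were not always called active; many hits fall short of the cut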
# Autofluor counter: flagged as autofluorescent in microsphere protease counterscreen; compound autofluorescence counterscreen, microsphere flow cytometry; stronger effect = higher value; fluorescence intensity (no concentration beside the values); actives 3.1% (n = 360,000); AID 624483;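 active = at least 3 SD above the mean of all compounds, about 16000 in these data; inconclusive = too few beads counted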;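 note: 100 nL of 1 mM stock went into each well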
# PrP 5UTR inh: inhibition of PrP 5' UTR reporter expression. inhibition, % (concentration not given with the values). actives 0.35% (n = 340,000). cell-based PrP 5' UTR mRNA reporter, plate reader;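 active = every replicate at 50% or more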;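 note: 0 = median of the neutral control wells; tested in H4 reporter cells; numbers are from one replicate; inactives centre near -14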
# Mtb hypoxia rep growth: also measured in Mtb hypoxia rep; calls as there; growth inhibition, %; measured here: M. tuberculosis growth (absorbance);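 0% = vehicle and 100% = reference antibiotic; read after six days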
# * hit, by the source's call; ? = inconclusive; nt = no result given; & = joins results of further samples. Hits appear at their usual frequency; about 4% have a hit in one of these screens.
nr	Compound	Autofluor counter	PrP 5UTR inh	Mtb hypoxia rep	Mtb hypoxia rep growth	Sa ugtP lethal	BJeLR lethal	Sa RN4220 lethal
1	COCCn1c(-c2ccccc2Cl)nc2c(c(=O)c3ccccc3n2C)c1=O	2908	-1	2	3	-1	-12	4.6
2	CC(OC(=O)Nc1ccccc1)C(=O)OC1CCCCC1 (centres undefined)	3079	-16	10	5	16	nt	6.4
3	CCOC(=O)c1cnc(SCc2ccc(C(C)(C)C)cc2)nc1N	9510	-34	-25	5	30	14	-5.5
4	CCOc1ccc(-c2c(C(=O)NN=Cc3ccco3)nnn2-c2nonc2N)cc1	nt	nt	-3	8	1	nt	0.3
5	COc1ccc(NC(=O)c2cc(-c3ccccc3)on2)cc1OC	4093	-26	0	-4	-4	-7	4.7
6	CCOc1ccc(CCNC(=O)c2cccc(S(=O)(=O)N3CCN(C(C)=O)CC3)c2)cc1OCC	4691	-9	15	2	7	3	5.3
7	O=C(CSc1ncn[nH]1)Nc1ncc(C(F)(F)F)cc1Cl	4354	75*	nt	nt	nt	-2	nt
8	COc1cccc2cccc(/C=N/n3cnnc3)c12	2551	-1	nt	nt	nt	4	nt
9	Cc1cccc(C)c1NC(=O)C1(N(C(=O)c2ccccn2)c2ccc(O)cc2)CCCCC1	4674	-24	-1	-9	2	1	3.7
10	Oc1ccc(-c2n[nH]c(C(F)(F)F)c2-c2ccccc2)c(O)c1	4365	15	6	-2	-9	15	-15
11	COc1ccc(NS(=O)(=O)c2cccc(C(=O)N3CCN(c4ccccc4O)CC3)c2)cc1	5849	-24	0	2	8	-10	3.2
12	COCC1CCCN(Cc2nc(-c3ccc4c(c3)OCO4)no2)C1 (centres undefined)	3939	-46	11	-3	1	-7	4.8
13	OC1(c2ccc3c(c2)OCO3)CCN(Cc2ccc(F)cc2)CC1	4880	-17	15	0	-6	9	0.3
14	CCn1c2ccccc2c2cc(NC(=O)CN3CCCC3)ccc21	4441	-3	6	-1	9	-15	2.9
15	COC(=O)c1ccc([N+](=O)[O-])c(CS(=O)(=O)c2ccc(Cl)cc2)c1	3701	-1	2	9	11	5	8.6
16	CC(C)N1CC(O)=C(c2nc3ccccc3c(=O)[nH]2)C1=N	2722	-29	nt	nt	0	-7	-1.6
17	CCOc1cc(Cl)c(NC(=O)CC)cc1OCC	7955	0	nt	nt	nt	4	nt
18	CNC(=O)N(O)C1N(N=Cc2ccccc2OC)C(=S)SC1(C)C (centres undefined)	nt	nt	2	2	4	nt	0.8
19	CC(C)[C@@H]1N[C@]2(C(=O)Nc3ccccc32)[C@@H]2C(=O)N(c3cccc(C(F)(F)F)c3)C(=O)[C@@H]21	9901	-16	-3	7	-4	3	2.9
20	Cc1nc2ccccn2c1C(=O)/C=C/c1ccc(F)cc1	2796	-70	nt	nt	-9	5	-0.5
21	COc1ccc(OC)c(NC(=O)CSc2ccccc2)c1	2772	-5	15	11	-4	2	17
22	COc1ccccc1OCCCOc1ccc(C)cc1Br	2062	-41	8	1	41	-6	16
23	COc1ccc(C2C(C(N)=O)=C(C)Nc3nc(-c4ccccc4OC)nn32)cc1OC (centres undefined)	9266	-13	-4	6	2	-3	0.7
24	Cn1c(CC(=O)Nc2ccc(F)cc2)c(Sc2ccccc2)c2ccccc21	1928	7	5	-1	-4	6	-3.3
25	C=CCNc1nc(C(=O)OCC(=O)c2ccc(OC)cc2OC)cs1	4973	-32	9	-2	11	6	5.8
26	OC(COc1ccc(-c2ccccc2)cc1)CN1CCOCC1 (centres undefined)	nt	nt	16	7	7	4	3.4
27	O=C1OC(CCl)CN1Cc1ccc([N+](=O)[O-])cc1 (centres undefined)	6140	-11	21	12	3	-2	2.7
28	CCc1nnc(NS(=O)(=O)c2ccc(N)cc2)s1	6090	-5	nt	nt	12	-1	8.9
29	Cc1ccc(C)c(N(CC(=O)N2CCCCCC2)S(C)(=O)=O)c1	3956	-10	2	0	6	-2	3.2
30	COc1ccc(-c2cccc(NC(=O)c3ccco3)c2)nn1	6672	-2	7	-2	5	-6	1.5
31	CC(=O)COc1cc(C)cc2oc(=O)cc(-c3ccccc3)c12	2629	-6	-6	-20	0	4	12
32	Cc1cccc2c(=O)c(C(=O)NCCCN3CCOCC3)c[nH]c12	5555	-3	-5	-5	20	0	8.0
33	Cc1c(CCC(=O)NCCCN2CCCC2=O)c(=O)oc2cc(O)ccc12	5002	-9	nt	nt	1	1	3.6
34	Cc1ccc(Nc2nc(-c3c(C)nc4ncccn34)cs2)cc1	9704	67*	8	7	-18	44	2.6
35	CCC1CCCCN1C(=S)Nc1ccc(SC(F)F)cc1 (centres undefined)	2316	-1	0	5	-4	-8	2.8
36	COc1ccc(OC)c(/C=C/C(=O)OCC(=O)Nc2cccc(Oc3ccccc3)c2)c1	2174	-11	-10	-6	2	1	10
37	CC(C)=N/N=C1/NC(=O)C(CC(=O)Nc2cc(Cl)ccc2C)S1 (centres undefined)	2051	-14	1	-1	7	-1	6.6
38	COc1ccc(NC(=O)c2sc(Cl)nc2-c2ccccc2)cc1	2238	-12	17	3	8	2	4.7
39	O=C(O)c1ccccc1NS(=O)(=O)c1ccc(NN=Cc2cccc(Cl)c2)c([N+](=O)[O-])c1	3781	-14	8	9	90*	nt	-11
40	CCOC(=O)c1csc(-c2ccc([N+](=O)[O-])cc2)n1	4456	-26	14	10	6	-16	0.8
41	COc1ccc(NC(=S)NNC(=O)Cn2nc([N+](=O)[O-])cc2C)cc1	7919	-17	8	5	11	19	7.6
42	c1ccc(Nc2nc(Nc3ccccc3)nc(N3CCNCC3)n2)cc1	nt	1	10	3	-5	26	-9.9
43	Cc1cc(OCCCC(=O)NCCc2nnc3ccccn23)ccc1Cl	3022	-11	1	-1	3	nt	7.4
44	Clc1cccc(Cl)c1/C=N/Nc1c(Cl)cncc1Cl	4550	9	nt	nt	nt	41	nt
45	COc1cccc(C(=O)c2ncc(C(F)(F)F)cc2Cl)c1	4010	-16	4	1	-14	0	4.5
46	CCN(CC)S(=O)(=O)N1CCC(C(=O)NCCN2CCOCC2)CC1	22119*	-8	-7	-3	4	4	-0.2
47	C=CCC(CC(=O)NC(CO)Cc1ccccc1)C(=O)NC(C)COC(=O)C(CC=C)Cc1ccc(F)cc1 (centres undefined)	nt	nt	17&19&2&7	8&6&5&8	4&5&2&-17	nt	1.8&4.3&4.0&8.4
48	Cc1ccc(C(C)(C)NC(=O)C2CCC(=O)N(Cc3ccccc3F)C2)cc1 (centres undefined)	6361	-31	6	0	5	2	1.5
49	COc1ccc(C=NNC(=O)c2ccc3nc[nH]c3c2)c(OC)c1OC	nt	nt	1	2	0	nt	-0.9
50	Cc1cccc(NC(=O)COc2ccccc2C(=O)NC(C)c2ccccc2)c1 (centres undefined)	5744	-20	5	10	-14	0	0.6
51	COC(=O)Nc1ccc(S(=O)(=O)N2CCCCCC2)cc1	11195	-30	5	6	1	-19	3.8
52	CCCc1cc(=O)oc2cc(C)cc(OC(C)C(=O)NCc3cccnc3)c12 (centres undefined)	5525	-10	9	4	4	4	2.0
53	CCOc1ccc(NC(=O)NCC2CCN(Cc3ccc(F)cc3)CC2)cc1	3710	-24	10	7	2	-4	-0.4
54	CCCCNC(=O)C1CC1C(O)C(CO)NC(=O)C(Cc1ccccc1)NC(=O)OC(C)(C)C (centres undefined)	nt	nt	1	3	1	nt	2.6
55	CCOC(=O)/C=C/C(=O)Nc1ccc(-c2nnc3n2CCCCC3)cc1	3212	-13	nt	nt	-1	6	-2.0
56	O=C(c1cccc(Br)c1)N1CCN(S(=O)(=O)N2CCCCCC2)CC1	4412	-16	13	8	10	5	1.0
57	C#CC(=O)N(c1ccc(OC)cc1OC)C(C(=O)NC1CCCC1)c1cccs1 (centres undefined)	5035	21	3	12	15	-6	30
58	O=C(Nc1ccc(F)cc1F)c1cc(-c2ccc3c(c2)OCO3)on1	3041	-71	2	2	0	-4	2.5
59	COc1cc(C(=O)OCC(=O)N2CCN(S(=O)(=O)c3ccc(C)cc3C)CC2)c([N+](=O)[O-])cc1OC	?	-2	7	5	1	nt	3.1
60	C=CCN1C(=O)C(CC(=O)O)SC1=Nc1ccc(C)cc1 (centres undefined)	4217	-34	0	11	-2	10	4.0

# (cont.)
nr	Compound	Autofluor counter	PrP 5UTR inh	Mtb hypoxia rep	Mtb hypoxia rep growth	Sa ugtP lethal	BJeLR lethal	Sa RN4220 lethal
61	CC(/C=N/Nc1nc(N2CCCCC2)nc(N2CCCCC2)n1)=C\c1ccccc1	8879	-10	nt	nt	nt	3	nt
62	COc1ccc(S(=O)(=O)N2CCN(C(=O)c3c(C)nn(-c4ccccc4)c3C)CC2)cc1	3441	-30	10	2	3	nt	4.8
63	CCc1cccc(NC(=O)C2CCCN(c3ncnc4c3nc3n4CCCCC3)C2)c1 (centres undefined)	4794	-22	6	-1	7	0	12
64	O=C(Cc1ccccc1)Nc1ccnn1C1CCN(Cc2nccs2)CC1	5809	4	1	8	4	5	0.8
65	O=C(CCC1CCCCC1)Nc1c2c(nn1-c1ccc(F)cc1)CS(=O)(=O)C2	10733	-22	-4	6	-3	-6	4.4
66	O=C1Nc2ccc(Br)cc2C1=Nc1cccnc1	5824	nt	15	13	-3	-2	-1.7
67	NC(=O)c1cc(S(=O)(=O)N2CC=C(c3ccccc3)CC2)cs1	4708	-8	0	7	-1	-13	2.5
68	Cc1ccc(C(c2nnnn2CS(=O)(=O)c2ccc(C)cc2)N2CCN(c3ncccn3)CC2)cc1 (centres undefined)	3912	-9	2	9	-3	-1	3.1
69	Cc1cc(N2CCN(C)CC2)nc(-c2ccccc2O)n1	4532	-15	7	-4	4	-17	3.2
70	Cc1nn(Cc2cccc(F)c2)c(C)c1NC(=O)c1c([N+](=O)[O-])c(C)nn1C	11424	-9	1	5	-1	-25	4.9
71	COC(=O)CCCNC(=O)c1ccccn1	4415	-22	-10	-6	-11	-2	-1.0
72	Cc1ccc2cc(CN(CCCO)S(=O)(=O)c3cccc4nsnc34)c(=O)[nH]c2c1	12314	-12	-10	-3	1	1	0.0
73	Nn1c(SCC(=O)NC2CCCCC2)nnc1-c1ccc(Cl)cc1	9472	-18	10	8	1	-10	4.3
74	COc1ccc(S(=O)(=O)NCc2cccs2)cc1	21782*	0	4	10	-7	-3	5.1
75	COC(=O)c1c(NC(NC(=O)CC(C)C)C(Cl)(Cl)Cl)sc2c1CCC2 (centres undefined)	2544	-65	-6	-10	-29	7	23
76	O=S(=O)(NC1Cc2ccccc2C1)c1ccccc1	3349	-2	12	7	-4	-6	4.6
77	CCn1c(O)c(/C=N/NC(=O)c2ccccc2)c(=O)[nH]c1=S	5292	-9	-2	5	6	-2	3.6
78	Cc1cc(C)cc(C(=O)NC(CC(N)=O)c2ccc(N3CCN(C)CC3)c([N+](=O)[O-])c2)c1 (centres undefined)	3857	-25	12	10	-3	-5	6.9
79	O=C(NCc1ccccc1)C1=CC(c2ccc3c(c2)OCO3)CC(OCc2ccc(CO)cc2)O1 (centres undefined)	nt	nt	18&9	4&7	16&8	nt	6.4&-3.4
80	CC(C)COc1ccc(N)cc1OCC(C)C	4148	-20	4	11	3	6	2.5
81	Cc1ccc(CCNC(=O)c2coc3nc4ccccc4nc23)cc1	2795	-20	-3	-2	12	1	13
82	CN(C(=O)CN1C(=O)NC(C)(c2cccc(Br)c2)C1=O)C1CCCCC1 (centres undefined)	3799	-1	0	3	1	nt	1.3
83	CNC(=S)NNC(=O)c1ccccc1Br	6535	-19	7	2	4	-1	5.7
84	CCCC(=O)NC(=S)Nc1cccc(-c2nc3ncccc3o2)c1	3578	-6	10	3	32	7	5.3
85	CCC(=NNC(=O)Nc1ccccc1)c1ccccc1	nt	nt	3	7	6	nt	2.2
86	COc1ccc(-c2oc3ccccc3c(=O)c2OC(=O)c2ccc(C)cc2)cc1	2306	-34	nt	nt	9	6	2.4
87	Oc1ccccc1/C=N/Nc1ncc(Br)cn1	10467	-25	nt	nt	nt	14	nt
88	CCOc1ccccc1NC(=O)c1cc(Cl)ccc1NC(=O)c1ccco1	17027*	-22	2	0	0	6	0.9
